Screens deposited in PubChem BioAssay by Johns Hopkins Ion Channel Center.
KCNQ2 inh = KCNQ2 potassium channel inhibitors, primary screen, cell-based, CHO-K1, FluxOR thallium flux, B-score (AID 2156). actives 1.1% (n = 310,000). B-score at 10 µM. 20 min; stronger effect = lower value; only compounds with negative scores are shown here; some inactives read as strong as hits;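 active means fluorescence ratio B-score at most minus 3 library SDs, with starting brightness B-score within 2 library SDs, cut at about -5.5 in these data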
Target sequence (O88943 whole entry, looked up): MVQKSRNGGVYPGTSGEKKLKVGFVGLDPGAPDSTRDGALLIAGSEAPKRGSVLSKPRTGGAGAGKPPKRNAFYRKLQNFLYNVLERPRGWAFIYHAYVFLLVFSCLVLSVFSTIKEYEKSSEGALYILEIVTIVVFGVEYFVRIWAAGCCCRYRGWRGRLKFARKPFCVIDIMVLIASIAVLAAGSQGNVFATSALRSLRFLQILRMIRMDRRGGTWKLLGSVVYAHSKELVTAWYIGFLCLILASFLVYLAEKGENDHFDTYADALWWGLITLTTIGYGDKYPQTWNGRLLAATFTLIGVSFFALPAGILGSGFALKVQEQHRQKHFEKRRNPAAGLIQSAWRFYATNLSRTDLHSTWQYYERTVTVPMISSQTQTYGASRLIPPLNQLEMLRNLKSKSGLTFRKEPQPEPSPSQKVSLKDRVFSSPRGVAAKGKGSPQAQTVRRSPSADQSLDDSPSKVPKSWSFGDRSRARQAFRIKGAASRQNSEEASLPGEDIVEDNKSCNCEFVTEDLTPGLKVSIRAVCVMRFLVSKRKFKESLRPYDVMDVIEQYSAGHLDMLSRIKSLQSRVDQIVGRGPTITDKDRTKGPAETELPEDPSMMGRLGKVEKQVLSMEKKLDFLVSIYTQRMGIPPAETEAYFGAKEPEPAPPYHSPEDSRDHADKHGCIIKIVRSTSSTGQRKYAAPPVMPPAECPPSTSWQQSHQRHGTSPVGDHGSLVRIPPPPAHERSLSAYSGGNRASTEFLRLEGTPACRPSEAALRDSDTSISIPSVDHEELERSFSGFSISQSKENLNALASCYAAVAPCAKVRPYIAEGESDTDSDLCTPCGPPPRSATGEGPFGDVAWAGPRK
KCNQ2 inh baseline = further read-out of KCNQ2 inh, marked with its call; B-score; measured here: initial fluorescence intensity artifact check;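 brightness before thallium and not channel activity; 0 = typical well and far values either way flag optical interference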
An asterisk follows results filed as active; i = inactive. The list is partial; rates above refer to the full screens.

KCNQ2 inh	KCNQ2 inh baseline	structure
i	-1.6	COc1ccc(C2SCC(=O)N2c2ccc(OC)cc2)cc1 (configuration not stated)
i	-0.35	Cc1ccc(C(=O)N/C(=C\c2ccco2)C(=O)N2CCCCC2)cc1
i	0.7	O=C(CCS(=O)(=O)c1ccc2c(c1)NC(=O)CS2)NCc1ccccc1Cl
i	-0.82	COc1ccc(C(=O)N2CCN(c3ccc(C)c(C)c3)CC2)cc1OC
i	0.64	FC(F)(F)c1cccc(NC(=S)Nc2ccc(Cl)cc2Cl)c1
i	-1.9	CCC1CO/C(=C(\C(Cl)=C(Cl)Cl)[N+](=O)[O-])N1 (configuration not stated)
i	-1.1	COc1cc(-c2noc(C)c2/C=C/c2cccc([N+](=O)[O-])c2)cc(OC)c1OC
i	-0.15	O=C1/C(=C/c2ccccc2)CCCc2ccccc21
i	-0.07	O=C(N/N=C\CCc1ccccc1)c1ccco1
i	0.36	COc1cc(/C=C/[N+](=O)[O-])ccc1OC(=O)c1cc2ccccc2oc1=O
i	2.5	Cc1ccc(S(=O)(=O)NC(C)(C)CN2CCNCC2)cc1
i	-0.83	Cc1c(OC(C(=O)O)c2ccccc2)ccc2c(-c3ccccc3)cc(=O)oc12 (configuration not stated)
i	-0.18	O=C(CCS(=O)(=O)c1ccc(F)cc1)Nc1nnc(-c2ccc(F)cc2)o1
-8*	-1.2*	COc1cccc(CNCCc2c[nH]c3ccccc23)c1OCc1ccc(F)cc1
i	4.6	Cc1ccc(-n2ncc3c(NCCCn4ccnc4)ncnc32)c(C)c1
i	2.9	Cn1c(O)c(N=NC(=O)c2ccccc2O)c2ccccc21
i	1.1	Cc1ccc(CCNC(=O)CCSCc2ccc(Cl)cc2)cc1
i	3.8	CCOc1ccc(CN2CCN(Cc3ccon3)CC2CCO)cc1 (configuration not stated)
i	-1.6	Cc1cccc2sc(N(CCCN(C)C)C(=O)c3ccc(Cl)s3)nc12
i	-0.01	CC12CCC(C(=O)n3c1nc1ccccc13)C2(C)C (configuration not stated)

(further entries)
KCNQ2 inh	KCNQ2 inh baseline	structure
i	-1	O=C(CS(=O)(=O)c1ccc(F)cc1)Nc1nnc(-c2ccccc2Cl)o1
i	1.5	CC1(OC(=O)C2CCCC2)C(=O)C=C2C=C(c3ccsc3)N(C3CC3)C=C2C1=O (configuration not stated)
i	0.89	CC(C)(C)NC(=O)c1ccc2c(c1)N(CC(=O)NC1CCCC1)C(=O)C(C)(C)O2
i	0.85	COc1ccc(-n2c(Cc3cccn3C)nnc2SCC(=O)Nc2ccc(C(C)=O)cc2)cc1
i	1.7	O=C(c1cnc2ccccc2n1)N1CCN(c2ccc(C(F)(F)F)cn2)CC1
i	0.01	CCc1cccc(CC)c1NC(=O)COC(=O)C1(c2ccc(Cl)cc2)CCCC1
i	1.4	COc1cc(CN2CCNC(=O)C2CC(=O)N2CCCN(C(C)=O)CC2)cc(OC)c1 (configuration not stated)
i	0.42	COc1c(Br)cc([N+](=O)[O-])c(OC)c1C(=O)NC(=O)Nc1cc(Cl)cc(Cl)c1
i	0.49	O=C(Nc1cccc2ccccc12)N1CCCN(c2c(Cl)cncc2Cl)CC1
i	1.2	Cc1cccc(Cn2c(=O)oc3ccc(C)cc32)c1
i	1.1	CCOc1ccc(NC(=O)c2nsc(Cl)c2Cl)cc1
i	1.6	CC(=O)Nc1ccc(S(=O)(=O)N2CCC(NC(=O)C(Cc3cccc(F)c3)NC(C)=O)CC2)cc1 (configuration not stated)
i	0.91	Cc1cc(C)nc(N2CCC(C(=O)NNC(=O)c3ccc(Cl)cc3)CC2)n1
i	6.7	CCOC(=O)C1(Cc2ccccc2)CCN(Cc2cn(CC(=O)OC)c3ccccc23)CC1
i	0.67	O=[N+]([O-])c1ccc(Oc2ccc(/C=N/O)cc2)nc1
i	1.4	CCC1CCCCN1C(=S)NC(=O)c1cc(S(=O)(=O)N2CCOCC2)ccc1C (configuration not stated)
i	-2.6	O=S(=O)(c1cccc(C(F)(F)F)c1)N1CCN(C(=S)NC2CC2)CC1
i	1.2	CC(=O)Nc1cc(NC(C)=O)ncn1
i	1.2	COc1ccc(C2NC(=O)c3ccccc3O2)cc1 (configuration not stated)
i	0.21	COc1ccc(CCNC(=O)C2CC3Cn4c(nc5ccccc54)C3N2C)cc1 (configuration not stated)

Carrying on:
KCNQ2 inh	KCNQ2 inh baseline	structure
i	-2.4	O=C(N/N=C\c1ccc[nH]1)C1COc2ccccc2O1 (configuration not stated)
i	1.8	Cc1cc(N2CCOCC2)cc(C)[n+]1[O-]
i	0.33	O=C(N/N=C/c1coc2ccccc2c1=O)c1cc(Br)c(O)c(Br)c1
i	-0.46	CCCCn1c2c(c(=O)n(C)c1=O)C(c1ccc(OC)cc1)N1CCCCCC1=N2 (configuration not stated)
i	2.5	COc1cccc(C2CCCN2Cc2nc(CCC(C)C)no2)c1 (configuration not stated)
i	1.1	Cc1ccc(N(CC(=O)NCCc2ccc(F)cc2)S(=O)(=O)c2ccc(Cl)c([N+](=O)[O-])c2)c(C)c1
i	-0.38	O=C(c1cccc(F)c1)N1CCN(c2ccc([N+](=O)[O-])c(N3CCOCC3)c2)CC1
i	2.4	CCCS(=O)(=O)n1nc(-c2ccc(C)cc2)cc1N
i	-1.1	COc1ccc(Cc2nc(-c3cccnc3)no2)cc1OC
i	-0.08	CC(=O)N1CCc2cc(Br)cc(S(=O)(=O)NCCCN3CCCC(C)C3)c21 (configuration not stated)
i	0.87	CCCC(=O)N1CCN(c2nnc(-c3ccccc3)c3ccccc23)CC1
i	0.83	O=C(COc1ccc(Cl)cc1Cl)Nc1ccc(C(=O)Nc2ccccc2C(=O)O)cc1
i	-0.61	CC(C)Nc1nc(-c2ccccc2)nc(-n2ccnc2)n1
i	0.97	COc1cccc(C2SCC(=O)N2c2ccc(Cl)cc2)c1OC (configuration not stated)
i	0.24	COc1ccc(CN2CC[C@H]3C=CC[C@@H](C(=O)NCCc4ccccc4)[C@H]3C2=O)cc1OC
i	-0.63	Cc1ccc(-n2nccc2-c2nn(-c3cccc(C(F)(F)F)c3)c(=O)n(C)c2=O)cc1
i	-0.21	O=C(Nc1nc2ccccc2[nH]1)c1ccc(Br)o1
i	4.3	O=S(=O)(Cc1ccccc1)N1CCc2ccccc21
i	0.15	Cc1cc(C)n(-c2ccc([N+](=O)[O-])cc2-c2nn[nH]n2)n1
i	-0.75	COc1ccc(CCN2C(=O)c3ccccc3NC2c2cc(Cl)c(O)c(OC)c2)cc1 (configuration not stated)

Continued.
KCNQ2 inh	KCNQ2 inh baseline	structure
i	0.96	CCOc1ccc(OCC(=O)Nc2ccc(S(N)(=O)=O)cc2)cc1
i	0.09	CCC(=O)OC1(C#CCOc2ccc(OC)cc2)CCN(C)CC1
i	0.19	O=C(Nc1ccc(Cl)c(C(F)(F)F)c1)[C@@H]1CC=C[C@@H]2CCN(C3CCCCC3)C(=O)[C@@H]21
i	0.1	Cc1ccc(S(=O)(=O)N(C)C)cc1NC(=S)N1CCCCC1CO (configuration not stated)
i	1.9	Cc1ccc(NC(=O)CC(=O)NCCN2CCOCC2)cc1
i	0.55	CSCCC(NS(=O)(=O)c1ccc(Cl)cc1)C(=O)OCC(=O)c1c(C)[nH]c2ccccc12 (configuration not stated)
i	0.95	Cc1ccc([N+](=O)[O-])cc1S(=O)(=O)Nc1ccc(N2CCOCC2)cc1
i	-0.9	COc1ccc(N2CCN(C(=O)CN3CCN(C(c4ccccc4)c4ccccc4)CC3)CC2)cc1
-5.5*	-0.53*	O=C(Cc1cccs1)N1CCN(c2ccc([N+](=O)[O-])cc2)CC1
i	0.83	FC(F)(F)c1ccncc1-c1nnnn1-c1ccc(Cl)cc1
i	1.3	Cc1cccc2[nH]c(CN(C)C(=O)C3CCC(=O)N(CCc4ccccc4)C3)nc12 (configuration not stated)
i	-1.8	O=C(NCCS(=O)(=O)N1CCN(c2ccccc2F)CC1)c1cccc(Br)c1
i	-1.6	Cc1ccccc1-c1nsc(SCC(=O)c2ccc(Cl)cc2)n1
i	2.8	CCN1CCN(c2nc3ccccn3c(=O)c2C=O)CC1
i	1.5	Cc1onc(-c2ccccc2)c1C(=O)N1CCOC12CCN(c1cccc(F)n1)CC2
i	-0.49	CCN(CC(=O)Nc1ccccc1C(F)(F)F)C(=O)c1ccc(=O)n(Cc2ccccc2)n1
i	-0.24	CCN(CC(=O)Nc1cccc(F)c1)Cc1nc2ccccc2c(=O)[nH]1
i	1.1	Cc1c(NC(=O)c2cc3c(s2)-c2ccccc2OC3)cccc1[N+](=O)[O-]
i	1.1	COc1ccc(F)cc1S(=O)(=O)Nc1cc2c3c(c1)CCC(=O)N3CCC2
i	-0.38	Cc1cc(C)cc(NC(=O)CSc2nc3ccccc3nc2N2CCCCC2)c1

A different layout for 2 compounds above:
| mol | KCNQ2 inh | KCNQ2 inh baseline |
| --- | --- | --- |
| CCN1CCN(c2nc3ccccn3c(=O)c2C=O)CC1 | i | 2.8 |
| Cc1onc(-c2ccccc2)c1C(=O)N1CCOC12CCN(c1cccc(F)n1)CC2 | i | 1.5 |

Returning to the listing, repeating the four entries before the break.
KCNQ2 inh	KCNQ2 inh baseline	structure
i	-0.24	CCN(CC(=O)Nc1cccc(F)c1)Cc1nc2ccccc2c(=O)[nH]1
i	1.1	Cc1c(NC(=O)c2cc3c(s2)-c2ccccc2OC3)cccc1[N+](=O)[O-]
i	1.1	COc1ccc(F)cc1S(=O)(=O)Nc1cc2c3c(c1)CCC(=O)N3CCC2
i	-0.38	Cc1cc(C)cc(NC(=O)CSc2nc3ccccc3nc2N2CCCCC2)c1
i	-1.1	CC(C)NC(=O)NC(=O)COC(=O)c1ccc(S(=O)(=O)Nc2ccccc2)cc1
i	1.6	CC1CCN(S(=O)(=O)c2ccc(C(=O)Nc3nnc(C4CC4)o3)cc2)CC1
i	-0.08	O=c1c2[nH]c3ccccc3c2ncn1C1CCCCC1
i	-1.6	CCOC(=O)C1=C(c2ccccc2)N=C2SCC(=O)N2C1c1ccc(OC)c(OC)c1 (configuration not stated)
i	1.1	O=C(c1ccccc1F)N1CCN(S(=O)(=O)c2ccc(Br)cc2)CC1
i	-0.15	Cc1cc(C)nc(NC(=O)CSc2nc3ccccc3s2)n1
i	-1	Cc1ccc(C(=O)N2CCSC2=S)cc1
i	-0.47	Cc1ccc2nc(Nc3ccc(F)cc3)c3nncn3c2c1
i	1.3	O=C(NNS(=O)(=O)c1ccc([N+](=O)[O-])cc1)c1ccc2ccccc2c1O
i	0.13	O=C(NNC(=S)Nc1ccc(Cl)c(Cl)c1)c1ccccn1
i	0.08	CCOc1ccc(OCC)c(NC(=O)CSc2nc3c(c(=O)n(C)c(=O)n3C)n2CC)c1
i	0.51	O=C(N/N=C/c1ccc[nH]1)c1ccncc1
i	-2.6	CNC(=O)CO/N=C/c1ccc(N(C)C)cc1
i	0.04	COc1ccc(OC)c(NC(=O)CSc2nc3ccccc3cc2Cc2ccccc2)c1
i	-0.01	Cc1ccc(S(=O)(=O)N2CCCCCC2)cc1[N+](=O)[O-]
i	1.6	O=C(O)Cc1ccc(NC(=O)Cc2ccc3ccccc3c2)cc1
i	-1	O=C(NS(=O)(=O)Oc1cccc(Cl)c1Cl)OC[C@@H]1CCCN2CCCCC12 (some centres not stated)
i	0.97	Cc1ccc2c(c1)N(CCC(=O)NCC1CCCO1)C(=O)CO2 (configuration not stated)
i	0.42	c1ccc2c(c1)CN1CCCC1=N2
i	0.36	COc1ccc(S(=O)(=O)NCC(=O)NC2CC2)cc1OC

Other compounds follow:
KCNQ2 inh	KCNQ2 inh baseline	structure
i	0.31	C/C(=N\NC(=O)c1ccc(N2CCCC2=O)cc1)c1ccncc1
i	0.03	Cn1cc(SCC(=O)NCc2ccc(F)cc2)c2ccccc21
i	1.1	CCSc1cc(N2CC(C)OC(C)C2)nc(-c2ccccc2Cl)n1 (configuration not stated)
i	-1.3	CN/C(=C\[N+](=O)[O-])NCCSCc1csc(CN(C)C)n1
i	-0.35	Cc1nc2ccccc2n1S(=O)(=O)c1ccc(S(=O)(=O)N2CCCCCC2)cc1
i	-0.15	CCC(C)NC(=O)CSc1nc2ccsc2c(=O)n1NC(=O)c1ccccc1 (configuration not stated)
i	2.2	Cc1cccc(-c2cc(C(=O)N/N=C/c3cccnc3)c3ccccc3n2)c1
i	3.2	CCOC(=O)N1CCN(C(=O)Nc2ccc3nc(C)c(C)nc3c2)CC1
i	-0.4	CC(Oc1cccc(Cl)c1)C(=O)Nc1ccc([N+](=O)[O-])cn1 (configuration not stated)
i	0.53	Cc1ccc(S(=O)(=O)/N=C(\c2ccc(F)cc2)n2c(C)nc3ccccc32)cc1
i	-0.76	CCC(C(=O)NC1CCCC1)N(Cc1cccs1)C(=O)Cn1nnc(-c2ccc(OC)c(OC)c2)n1 (configuration not stated)
i	-0.28	CC(C)N(C(=O)COC(=O)[C@@H]1CC(O)CN1S(=O)(=O)c1ccc(C(C)(C)C)cc1)C(C)C (some centres not stated)
i	0.35	COCCCN(C(=O)c1cccnc1SC)c1c(N)n(Cc2ccccc2)c(=O)[nH]c1=O
i	1.8	Cc1cc(C)nc(SCc2cc(=O)c(OC(=O)c3ccc(Cl)c([N+](=O)[O-])c3)co2)n1

5 of the entries above in order of the KCNQ2 inh baseline value, ascending:
Compound	KCNQ2 inh baseline
CC(Oc1cccc(Cl)c1)C(=O)Nc1ccc([N+](=O)[O-])cn1 (configuration not stated)	-0.4
Cc1nc2ccccc2n1S(=O)(=O)c1ccc(S(=O)(=O)N2CCCCCC2)cc1	-0.35
CCC(C)NC(=O)CSc1nc2ccsc2c(=O)n1NC(=O)c1ccccc1 (configuration not stated)	-0.15
C/C(=N\NC(=O)c1ccc(N2CCCC2=O)cc1)c1ccncc1	0.31
Cc1cc(C)nc(SCc2cc(=O)c(OC(=O)c3ccc(Cl)c([N+](=O)[O-])c3)co2)n1	1.8

Record cards (already shown). Order of screens: KCNQ2 inh	KCNQ2 inh baseline
`CCOC(=O)N1CCN(C(=O)Nc2ccc3nc(C)c(C)nc3c2)CC1` is entered as i	3.2
`COc1ccc(CCNC(=O)C2CC3Cn4c(nc5ccccc54)C3N2C)cc1` (configuration not stated) is entered as i	0.21
`Cc1ccc(S(=O)(=O)/N=C(\c2ccc(F)cc2)n2c(C)nc3ccccc32)cc1` is entered as i	0.53
